High-throughput results: PubChem, several laboratories
HSV replic up – HSV replication enhancement; HSV replication augmentation in cells, fold increase; maximum fold increase; hit rate 0.005% among 220,000;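 active = peak rise of 1.5-fold or more in the series; tested in PC3 cells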;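 also: first round at 10 µM; read as green reporter fluorescence; hits show the peak of a series up to 25 µM; 1 = signal of infected wells without compound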
PKD1 inh – blocks activity of human protein kinase D1. inhibition, %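 (about 10 µM by stock and volumes)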. PKD1 kinase fluorescence polarization assay. hit rate 0.056% among 200,000. AID 797;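 active = inhibition of 50% or more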;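 also: controls were vehicle for no effect and a reference inhibitor for full effect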
INS promoter inh – TRM-6 insulin promoter activity inhibition; inhibition, % at 2 µM; hit rate 0.9% among 130,000; AID 1273; TRM-6 cells (human fetal islet line), insulin promoter-eGFP reporter, imaging; reporter expression induced with tamoxifen;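 active = inhibition above the mean plus 3 SD, with well images judged a real hit on visual review, cut at about 60% in these data, passing the limit was not always enough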
RGS16-Gao – RGS16-Galphao interaction regulator (human); hit rate 0.38% among 220,000; bead-based flow cytometry RGS16-Galphao binding, fluorescence; actives lie on both sides; binding response (% of control), % at 10 µM; O15492+P09471;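 active = below 25% or above 175%, edge rows of some plates excepted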;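 also: Galphao activated by GDP with aluminum fluoride before binding; 100% = wells without compound and 0% = beads without RGS; some results beyond the cut were filed as inactive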
Target sequence (O15492 whole entry, looked up): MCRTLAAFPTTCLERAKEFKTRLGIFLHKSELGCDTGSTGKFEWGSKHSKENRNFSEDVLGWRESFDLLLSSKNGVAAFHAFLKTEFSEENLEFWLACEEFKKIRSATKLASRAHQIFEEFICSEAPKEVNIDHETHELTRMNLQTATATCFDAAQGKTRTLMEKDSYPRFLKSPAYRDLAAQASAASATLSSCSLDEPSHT
Target sequence (P09471 whole entry, looked up): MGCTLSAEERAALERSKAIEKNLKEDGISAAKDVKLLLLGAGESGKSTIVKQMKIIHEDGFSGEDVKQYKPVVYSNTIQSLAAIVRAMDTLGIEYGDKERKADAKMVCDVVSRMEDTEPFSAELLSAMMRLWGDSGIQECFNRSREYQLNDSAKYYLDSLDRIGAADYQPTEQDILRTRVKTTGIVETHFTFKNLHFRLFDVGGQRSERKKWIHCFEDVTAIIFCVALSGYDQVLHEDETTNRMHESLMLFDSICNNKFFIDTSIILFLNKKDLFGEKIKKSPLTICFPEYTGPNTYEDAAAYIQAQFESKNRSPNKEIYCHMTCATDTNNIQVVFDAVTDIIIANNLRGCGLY
GALR2 ag – activates the human galanin receptor 2; GALR2-expressing cells, agonist activation read-out; hit rate 0.48% among 140,000; O43603; activation, %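 (tested at 5 µM)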;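 active = above mean plus 3 SD of all compounds, about 5% in these data, not always enough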;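 also: 0% = vehicle buffer wells and 100% = reference agonist at full effect; tested in CHO reporter cells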
Target sequence (O43603 whole entry, looked up): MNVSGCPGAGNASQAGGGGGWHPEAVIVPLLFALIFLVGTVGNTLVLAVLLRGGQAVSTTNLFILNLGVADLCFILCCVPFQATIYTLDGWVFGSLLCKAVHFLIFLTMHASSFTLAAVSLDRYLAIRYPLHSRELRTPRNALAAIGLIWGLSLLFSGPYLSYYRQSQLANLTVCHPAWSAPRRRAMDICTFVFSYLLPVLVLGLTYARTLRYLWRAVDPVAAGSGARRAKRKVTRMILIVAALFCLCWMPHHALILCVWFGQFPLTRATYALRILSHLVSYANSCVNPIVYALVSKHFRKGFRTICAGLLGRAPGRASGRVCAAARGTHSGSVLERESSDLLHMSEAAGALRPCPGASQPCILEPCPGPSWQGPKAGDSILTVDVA
INS promoter inh cell count – also measured in INS promoter inh; calls as there; normalized cell count, %; measured here: cell count, toxicity; reference of the scale not given here;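 cells exposed to compound for 48 h; stained nuclei by imaging scaled within each plate; lower means fewer cells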
HSV replic up primary fold – further read-out of HSV replic up, marked with its call; fold increase; compound at 10 µM; measured here: primary screen fold increase 10 uM; tested in PC3 cells;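 GFP signal in the first replicate; 1 = infected wells without compound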
Starred values were filed as active, the others as inactive; i = inactive; x = not tested or not shown.

SMILES	HSV replic up	HSV replic up primary fold	PKD1 inh	INS promoter inh	INS promoter inh cell count	RGS16-Gao	GALR2 ag
COc1ccc(CNC(=O)CSc2nc(C)cs2)cc1	i	0.86	-8	-8	79	106	x
Cc1nc2ccccc2cc1C(=O)NCc1ccco1	i	0.85	-5	8	200	107	-1.0
O=c1[nH]nc(SCc2ccccc2)n1C1CC2C=CC1C2 (stereo not drawn)	i	0.94	x	x	x	102	x
Cc1ccc(OCCC(=O)Nc2ccc(C)c(F)c2)cc1	i	0.82	-1	x	x	107	x
CCCN(Cc1cc(=O)[nH]c2ccccc12)C(=O)CC	i	1	x	x	x	98	x
Cc1cc(OCc2nn[nH]n2)c2c(C)c(Cc3ccccc3)c(=O)oc2c1	i	0.89	11	-3	71	101	-0.3
CN(c1ccc(OCC(=O)Nc2ccc3[nH]c(=O)[nH]c3c2)cc1)S(=O)(=O)c1ccc(Cl)cc1	i	0.71	-6	-26	93	102	-1.5
CC(=O)NS(=O)(=O)c1ccc(NC(=O)c2ccc(Cl)cc2[N+](=O)[O-])cc1	i	0.96	-2	33	63	95	x
CCOC(=O)N1CCC(NC(=O)Cc2ccc(-n3c(=O)[nH]c4ccccc4c3=O)cc2)CC1	x	x	-5	-500	55	x	-1.6
Cc1cc(C)cc(NC(=O)c2ccc(Cn3nc(C)c(Cl)c3C)o2)c1	i	0.91	-6	0	129	112	-2.1
CSc1nsc(/C=C/Nc2ccc(F)cc2)c1C#N	x	x	-5	i	118	105	x
COC(=O)c1cccc(NC(=O)CN(c2ccc3c(c2)OCO3)S(C)(=O)=O)c1C	i	0.95	-11	-417	67	105	0.1
CCOC(=O)C1(CCc2ccccc2)CCN(Cc2cccc3nccnc23)CC1	i	0.82	-3	x	x	103	x
Cc1[nH]c2ccccc2c1C(c1ccccn1)N1CCC(C)CC1 (stereo not drawn)	i	0.83	1	35	82	99	-2.3
O=C(CSc1nnnn1Cc1ccccc1)c1ccccc1F	i	1	1	93*	41*	75	x
Cc1nn2c(N)c(C#N)cnc2c1-c1ccccc1	i	0.97	-1	33	94	77	-0.5
O=[N+]([O-])c1ccc(N2CCN(S(=O)(=O)Cc3ccccc3)CC2)cc1N1CCOCC1	i	1.2	15	20	79	100	-1.6
COc1ccc(-n2nnnc2SCC(=O)NCCc2ccc(OC)c(OC)c2)cc1	i	0.66	0	0	120	102	-1.3
CCC(c1nnnn1Cc1ccc(OC)cc1)N1CCN(c2ccc(OC)cc2)CC1 (stereo not drawn)	i	0.95	0	47	95	109	x
Cc1ccc(S(=O)(=O)N(C)CC(=O)Nc2nc3ccccc3s2)cc1	i	0.93	-11	38	123	101	-0.9
NC(=O)c1sc2nc3c(c(-c4cccnc4)c2c1N)CCC3	i	0.9	-2	-288	114	108	-1.4
Cc1ccccc1NC(=O)CSc1nc(N)c(C#N)c(-c2cccs2)c1C#N	i	0.79	4	-200	61	104	-0.7
Cc1ccc(C(=O)C2CCN(CC(=O)Nc3ccc(N(C)C)cc3)CC2)cc1	i	1.2	10	x	x	98	-2.8
CCOCCCNC(=O)CN1C(=O)/C(=C\c2ccc(C)cc2)Sc2ccccc21	i	0.82	0	-37	107	109	-0.6
CCOC(=O)C1CCCN(CC(=O)Nc2c(F)c(F)c(F)c(F)c2F)C1 (stereo not drawn)	i	1	0	-18	92	138	-1.4
Cn1c(=O)c2c(nc(NCc3ccc4c(c3)OCO4)n2Cc2ccccc2)n(C)c1=O	i	1	4	-289	69	98	-1.5
Cc1ccc(S(=O)(=O)CCSc2nccn2C)cc1	i	1	x	x	x	99	x
O=C(Nc1ncc(S(=O)(=O)c2ccc([N+](=O)[O-])cc2)s1)c1cccnc1	i	0.9	x	x	x	101	x
COc1ccc(C2CC(C(F)(F)F)n3ncc(C(=O)NCC4CCCO4)c3N2)cc1OC (stereo not drawn)	i	0.85	-4	x	x	106	-2.5
Cc1nn(Cc2ccccc2)c(C)c1/C=N/NC(=O)c1ccccc1O	i	0.7	x	x	x	99	x
Cc1onc(-c2ccccc2)c1C(=O)c1c[nH]c(C(=O)NCCCN2CCOCC2)c1	i	1	-8	33	146	104	x
Cc1ccc(NC(=O)Cc2ncon2)cc1Cl	i	1.1	x	x	x	100	x
Cc1cc(C)c(NC(=S)NC(=O)c2c(Cl)c(C)nn2C)c([N+](=O)[O-])c1	i	0.91	7	x	x	27	-1.0
CCCCn1c(CCCNC(=O)CC)nc2ccccc21	i	0.67	-4	x	x	103	-1.8
CC(=O)CCc1c(C)nc2ccc(C)cc2c1Cl	i	0.9	-2	28	122	104	x
Cc1cc(C(=O)N/N=C/c2c[nH]c3ccccc23)c(C)o1	i	1	-1	-27	69	100	-0.9
COc1cccc(C(=O)Nc2sc(C(C)C)cc2C(N)=O)c1OC	i	0.8	x	x	x	102	x
CCSc1nnc(-c2ccncc2)n1Cc1ccccc1	i	1	-4	-6	65	102	-2.5
N=C1C(c2ccccc2)=C(O)CN1c1cccc2ccccc12	i	0.92	-3	x	x	100	x
Cc1ccc(CNC(=O)c2sc3nc4c(c(C(F)(F)F)c3c2N)CCC4)cc1	i	1	-8	x	x	104	-0.9
C/C(=N/O)c1ccc(Oc2cnccn2)cc1	i	0.88	-5	x	x	102	x
COc1ccc(Cn2c(=O)c3c(nc(NCCO)n3C)n(C)c2=O)cc1	i	0.95	-11	42	102	100	-1.0
NS(=O)(=O)c1ccc(Cl)c(C(=O)Nc2ccccc2[N+](=O)[O-])c1	i	0.92	-2	x	x	108	x
O=C1CN(c2nc3nonc3nc2N2CCCCC2)CCN1	i	0.93	2	x	x	102	x
S=c1[nH]nc(COc2ccc3ccccc3c2)o1	i	0.98	-9	-35	97	106	-0.8
C/C(=N\NC(=O)c1ccccc1[N+](=O)[O-])c1ccc(Br)s1	i	0.95	-10	x	x	96	x
Nn1c(SC/C=C/c2ccccc2)nnc1-c1ccccn1	i	0.89	0	-94	62	-165	-1.0
O=C(Cc1ccccc1Cl)NC1(O)C(=O)c2ccccc2C1=O	i	1	x	x	x	107	x

Structural class: those above with an NH in an aromatic ring
SMILES	HSV replic up	HSV replic up primary fold	PKD1 inh	INS promoter inh	INS promoter inh cell count	RGS16-Gao	GALR2 ag
O=c1[nH]nc(SCc2ccccc2)n1C1CC2C=CC1C2 (stereo not drawn)	i	0.94	x	x	x	102	x
CCCN(Cc1cc(=O)[nH]c2ccccc12)C(=O)CC	i	1	x	x	x	98	x
Cc1cc(OCc2nn[nH]n2)c2c(C)c(Cc3ccccc3)c(=O)oc2c1	i	0.89	11	-3	71	101	-0.3
CN(c1ccc(OCC(=O)Nc2ccc3[nH]c(=O)[nH]c3c2)cc1)S(=O)(=O)c1ccc(Cl)cc1	i	0.71	-6	-26	93	102	-1.5
CCOC(=O)N1CCC(NC(=O)Cc2ccc(-n3c(=O)[nH]c4ccccc4c3=O)cc2)CC1	x	x	-5	-500	55	x	-1.6
Cc1[nH]c2ccccc2c1C(c1ccccn1)N1CCC(C)CC1 (stereo not drawn)	i	0.83	1	35	82	99	-2.3
Cc1onc(-c2ccccc2)c1C(=O)c1c[nH]c(C(=O)NCCCN2CCOCC2)c1	i	1	-8	33	146	104	x
Cc1cc(C(=O)N/N=C/c2c[nH]c3ccccc23)c(C)o1	i	1	-1	-27	69	100	-0.9
S=c1[nH]nc(COc2ccc3ccccc3c2)o1	i	0.98	-9	-35	97	106	-0.8

The results go on:
SMILES	HSV replic up	HSV replic up primary fold	PKD1 inh	INS promoter inh	INS promoter inh cell count	RGS16-Gao	GALR2 ag
CCCn1c(/N=C/c2ccc3c(c2)OCO3)nc2ccccc21	i	0.9	0	-16	95	92	-0.9
O=c1c2ccccc2nc(CSc2nnnn2-c2ccccc2)n1-c1ccccc1	x	x	-5	3	118	107	-0.3
CCOC(=O)CNC(=O)c1sc(NC(=O)c2cccc(F)c2)nc1C	i	1	0	1	125	101	-0.9
O=C1OC(Nc2ccc(Br)cc2F)c2ccccc21 (stereo not drawn)	i	0.75	-4	-27	143	106	-0.6
CC(=O)Nc1ccc(S(=O)(=O)N2CCCC2C(=O)Nc2ccc3c(c2)OCCO3)cc1 (stereo not drawn)	i	1	-9	x	x	103	x
N#C/C(=C\c1ccc(Oc2ccc(C(F)(F)F)cc2[N+](=O)[O-])cc1)c1nc2ccccc2[nH]1	i	0.91	7	-23	118	98	-0.6
C/C=C(\C)CN1CCN(c2cc(C)ccc2C)CC1	i	0.95	-3	x	x	99	-1.3
CCOC(=O)N1CCN(C(=O)/C(=C/c2ccc(OC)cc2)NC(=O)c2ccccc2)CC1	i	1.2	4	x	x	105	-2.3
CCOC(=O)c1c(C)c(-c2ccccc2)n(CC(=O)NCCC(C)C)c1C	i	0.81	-6	x	x	112	-0.8
CCCC(=O)Nc1ccc(NC(=O)Cc2ccccc2)cn1	i	1	-11	-50	143	94	-2.0
CC(C)Cn1c(N)c(C(=O)COC(=O)c2ccc(Cl)cc2)c(=O)n(C)c1=O	i	0.89	4	-28	92	99	x
CN(NC1OC(=O)c2ccccc21)c1ccc(Cl)cc1[N+](=O)[O-] (stereo not drawn)	i	0.94	x	x	x	109	x
Fc1cccc(NCc2ccoc2)c1	i	0.93	-10	x	x	99	-3.4
O=C(NCc1ccco1)Nc1ccc2nsnc2c1	i	1	-4	0	134	100	-2.2
O=C(c1ccc(Cn2cc(Cl)cn2)cc1)N1CCN(c2ccccc2)CC1	i	0.84	-13	12	141	96	-0.8
Cn1c(CN2CCCCC2)nc2cc(NC(=O)c3ccccc3)ccc21	i	0.88	-3	-25	114	97	-1.3
CCOc1ccc(NC(=O)CCCOc2cc(=O)n(C)c3ccccc23)cc1	i	0.92	-6	13	171	95	-0.6
CN(C1=NC(=O)C(CC(=O)O)S1)c1ccc(O)cc1 (stereo not drawn)	i	0.93	-2	-30	133	102	x
CC(C)NC(=O)c1ccccc1NC(=O)C1COc2ccccc2O1 (stereo not drawn)	i	1	-15	-275	120	106	-1.0
CC(=O)Nc1ccc(C(C#N)c2ccccc2)cc1 (stereo not drawn)	i	0.94	-6	x	x	107	x
CCCS(=O)(=O)N1CCC(C(=O)N2CCCC2)CC1	i	1	0	21	84	102	-2.6
CCCCOC(=O)c1ccc(NC(c2ccc(C)cc2)P(=O)(OC)OC)cc1 (stereo not drawn)	i	0.9	7	-3	114	103	-0.3
Nc1ccc(-c2cc(N)n(-c3ccccc3)n2)cc1	i	1	-5	x	x	78	-0.7
Cc1ccnc(NC(=O)Cc2ccc([N+](=O)[O-])cc2)c1	i	0.85	6	x	x	99	x
CCOC(=O)c1c(C)[nH]c(C)c1C(=O)COC(=O)[C@@H]1CCCN1S(=O)(=O)c1ccc(Cl)cc1	i	1.1	-8	-83	79	94	-2.5
COCCNc1oc(COc2cccc(C)c2)nc1C#N	i	0.89	9	-156	48	120	-1.1
CCC1(CC)NC(=O)N(CC(=O)NCc2ccc3c(c2)OCO3)C1=O	i	0.99	3	-10	100	105	0.3
COC(=O)c1c(S(C)(=O)=O)nc(-c2ccccc2)[nH]c1=O	i	1.1	-3	14	99	97	-1.2
Cc1cc(Cl)ccc1NC(=S)N(CCCN1CCOCC1)Cc1cccs1	i	1	-4	x	x	126	1.4
CN1CCc2c(c3ccccc3n2Cc2ccccc2)C1	i	0.95	-1	x	x	118	-1.7
CSc1ncccc1C(=O)OCC(=O)c1cccs1	i	0.96	0	27	94	95	x
COc1ccc(S(=O)(=O)CCC(=O)Nc2ccc(OC)cc2OC)cc1	i	0.92	15	-21	166	100	-4.0
CC(=O)c1ccc(NC(=O)CSc2nnc(Cn3cnc4ccccc43)o2)cc1	i	0.98	1	11	95	103	x
COCC(=O)Nc1ccc(OC)c(Cl)c1	i	1	-2	x	x	98	x
OC(CNC1CCCC1)COc1ccc(-c2ccccc2)cc1 (stereo not drawn)	i	0.72	-6	x	x	105	x
O=C(COC(=O)Cc1ccc2c(c1)OCCO2)Nc1ccc(S(=O)(=O)N2CCCC2)cc1	i	1	-5	-31	99	103	-0.6
COc1ccc(C)cc1NC(=O)c1cc2c(s1)CCC2	i	0.91	-2	x	x	104	-2.0
CCOc1cc(/C=C(/NC(C)=O)C(=O)O)cc(Cl)c1OCc1cccc(Br)c1	i	0.74	x	x	x	104	x
Cc1cccc(Cl)c1NC(=S)NCCc1ccccn1	i	0.98	x	x	x	92	x
C/C(N)=C(/C#N)C(=O)COC(=O)Cc1coc2ccc3ccccc3c12	i	1	6	-27	71	95	x
CC1(C)CC(=O)C(C=NCCN2CCOCC2)=C(O)C1	i	0.79	10	-45	57	101	-0.1
COC(=O)c1cc2sccc2n1Cc1ccc(C)cc1	i	0.94	-3	x	x	103	-0.9
COC(=O)/C(C#N)=C/c1c(Oc2cccc(C)c2C)nc2ccccn2c1=O	i	0.88	x	x	x	95	x
CN(C)c1ccc(P(=O)(OC2CCCCC2)C(O)c2ccncc2)cc1 (stereo not drawn)	i	0.9	x	x	x	101	x

An unsorted share of the library; about 1.3% have a hit in one of these screens.
